Assay outcomes: PubChem BioAssay, several laboratories
FPRL1 binder = human FPRL1 ligand, with FPR counter-screen. 24,000 compounds, 0.3% hits. inhibition, %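 (tested at 6.7 µM)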. P25090. AID 441. FPRL1-expressing cells, fluorescent ligand binding inhibition, flow cytometry;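 note: 0% = buffer alone and 100% = receptor blocker peptide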
Target sequence (P25090 whole entry, looked up): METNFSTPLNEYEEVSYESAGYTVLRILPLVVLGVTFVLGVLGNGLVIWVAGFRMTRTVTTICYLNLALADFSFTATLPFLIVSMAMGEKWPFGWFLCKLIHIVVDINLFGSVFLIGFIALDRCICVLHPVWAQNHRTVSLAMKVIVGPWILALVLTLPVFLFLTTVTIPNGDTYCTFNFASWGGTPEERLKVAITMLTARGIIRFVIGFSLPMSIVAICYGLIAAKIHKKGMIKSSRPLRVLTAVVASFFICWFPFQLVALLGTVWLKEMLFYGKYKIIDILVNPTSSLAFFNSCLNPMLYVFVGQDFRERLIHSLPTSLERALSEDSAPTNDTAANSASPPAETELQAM
FPR ligand = human FPR ligand, with FPRL1 counter-screen | FPR-expressing cells, fluorescent ligand binding, flow cytometry | P21462 | 24,000 compounds, 0.74% hits | AID 440 | inhibition, %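 (tested at 6.7 µM)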;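 note: 0% = buffer wells and 100% = receptor blocker peptide wells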
Target sequence (P21462 whole entry, looked up): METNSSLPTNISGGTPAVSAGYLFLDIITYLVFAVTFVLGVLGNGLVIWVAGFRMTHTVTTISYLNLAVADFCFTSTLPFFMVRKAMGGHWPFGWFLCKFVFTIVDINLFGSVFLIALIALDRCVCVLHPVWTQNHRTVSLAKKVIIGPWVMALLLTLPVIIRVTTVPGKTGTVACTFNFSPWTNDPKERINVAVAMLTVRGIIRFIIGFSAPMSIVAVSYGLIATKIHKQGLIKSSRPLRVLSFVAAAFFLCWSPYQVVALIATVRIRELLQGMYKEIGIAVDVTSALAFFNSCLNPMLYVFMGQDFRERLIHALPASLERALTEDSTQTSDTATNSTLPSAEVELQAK
VCAM-1 inhibition = inhibitors of TNFa-induced VCAM-1 surface display, cell-based, plate reader, pooled HUVEC, TNFa stimulus (AID 454) | HUVEC TNFa-induced VCAM-1 surface immunofluorescence, plate reader; numbers were filed only for top-ranked candidate wells | inhibition, % at 5 µM | 10,000 compounds, 0.2% hits;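 active = compound among top-ranked inhibitors of TNF-induced VCAM-1 adhesion protein staining, with the hit upheld by image or statistical review; inactive = the rest, including hits rejected on review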;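 note: 0% = TNFa with vehicle and 100% = cells without TNFa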
VCAM-1 augmentation = enhancers of VCAM-1 display on endothelial cells, imaging, high-content imaging, pooled HUVEC, TNFa stimulus (AID 457) | Pooled HUVEC, TNFa-induced VCAM-1 immunofluorescence imaging; hits of this screen are not shown here | calls only | 10,000 compounds, 0.2% hits;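 active = a top-ranked rise in VCAM-1 staining upheld on image or statistical review; inactive = the rest, including candidates rejected on review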;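 note: compounds tested at 5 µM in the well; cells exposed to compound for 24 hours before fixing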
VCAM-1 imaging = suppression of endothelial VCAM-1 upregulation – imaging, high-content imaging, pooled HUVEC, TNFa stimulus (AID 456). HUVEC TNFa-induced VCAM-1 surface expression, immunofluorescence imaging; numbers were filed only for top-ranked candidate wells. inhibition, % at 5 µM, or IC50 in µM where a hit was titrated. 10,000 compounds, 0.2% hits;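 active = top tenth filtered wells with inhibition above zero that passed visual or statistical confirmation; inactive = the rest, including hits rejected on review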;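 note: 0% = stimulated vehicle wells and 100% = unstimulated cells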
* marks the source's active call; other numbers are inactive results; i = inactive; ? = inconclusive; nt = no result given.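 Rule for the calls, unless noted: active = mean above 30%; inconclusive = self-fluorescent; inactive = the rest.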 A portion of the library; count on the stated rates, not on these rows.

Compound	FPRL1 binder	FPR ligand	VCAM-1 inhibition	VCAM-1 augmentation	VCAM-1 imaging
O=C(Nc1ccc2c(c1)OCO2)c1cccc(Cl)c1	4	8	i	i	i
COc1ccc(-c2nc(CN3CCC(C(=O)N4CCc5ccccc54)CC3)c(C)o2)cc1OC	-4	-12	nt	nt	nt
CC(=O)Nc1ccc(OCC(O)CN2CCN(c3cccc(Cl)c3)CC2)cc1 (configuration not stated)	-3	-4	i	i	i
CC(NC(=O)C1CCN(S(=O)(=O)N2CCCCCC2)CC1)c1ccccc1 (configuration not stated)	-1	0	nt	nt	nt
Nc1nc(SCc2nc3scc(-c4cccs4)c3c(=O)[nH]2)n[nH]1	3	-2	i	i	i
Cn1c(=O)c2c(nc(NCCCO)n2Cc2cccc(Br)c2)n(C)c1=O	-1	9	i	i	i
O=C(C1CCCCC1)N1CCN(S(=O)(=O)c2ccc(Cl)cc2)CC1	-1	4	nt	nt	nt
O=S(=O)(c1ccc(S(=O)(=O)N(Cc2ccco2)Cc2ccccc2Cl)cc1)N1CCCC1	-5	-5	i	i	i
COc1ccc(CC(=O)NCc2nnc(SCC(=O)Nc3nccs3)n2-c2ccccc2)cc1	5	3	i	i	i
COc1ccccc1N1CC(O)=C(c2nc3ccccc3c(=O)[nH]2)C1=N	-7	3	i	i	i
CCN(CCCNS(=O)(=O)c1ccc2c(c1)oc(=O)n2C)c1cccc(C)c1	-5	2	i	i	i
COc1ccc(CNc2oc(COc3ccccc3Cl)nc2C#N)cc1	-5	-7	i	i	i
CCCn1c(SCC(=O)N2CCCc3ccccc32)nnc1-c1ccccn1	10	22	i	i	i
CCOc1ccccc1C1C(C(N)=O)=C(C)Nc2nc(-c3cccc(C)c3)nn21 (configuration not stated)	1	0	nt	nt	nt
CCOc1ccc(C2c3c(oc4ccccc4c3=O)C(=O)N2c2ccccn2)cc1OC (configuration not stated)	1	2	nt	nt	nt
CCOC(=O)c1cc(-c2ccc(N)cc2)sc1N	-4	6	i	i	i
CC1=NCCN1S(=O)(=O)c1ccc(Br)c(C)c1	-2	-2	nt	nt	nt
CC(NS(C)(=O)=O)C(c1cccs1)N1CCN(c2ccccc2)CC1 (configuration not stated)	5	3	nt	nt	nt
O=C(O)CCn1[nH]c(=O)ccc1=O	-1	7	i	i	i
CCc1ccc2[nH]c(=O)c(C(c3nnnn3CC3CCCO3)N3CCCc4ccccc43)cc2c1 (configuration not stated)	-1	7	93*	i	89%
Cc1ccc(CNC(=O)CS(=O)Cc2nc(-c3ccccc3C)oc2C)cc1 (configuration not stated)	0	-3	nt	nt	nt
COc1ccccc1CN1C(=O)CCC1(C)C(=O)NC1CCCCCC1 (configuration not stated)	8	-9	i	i	i
COc1ccc(NC(=O)CSc2ccccn2)cc1OC	-1	-20	i	i	i
CCOC(=O)C1CN(S(=O)(=O)c2ccc(C)cc2)CCN1S(=O)(=O)c1ccc(C)cc1 (configuration not stated)	-11	0	i	i	i
CCN(CC(=O)NCc1cccs1)C(=O)c1cc(S(=O)(=O)N2CCOCC2)ccc1C	1	5	i	i	i
CCOC(=O)C1=C(C)N(c2nonc2NC(C)=O)C(N)=C(C#N)C1c1ccccc1F (configuration not stated)	-6	-2	nt	nt	nt
Cc1ccc(-c2nn(-c3ccccc3)cc2C2SCC(=O)N2Cc2ccccc2)o1 (configuration not stated)	-11	-1	nt	nt	nt
CCOC(=O)C1CCCN(C(=O)c2cn(CC)c3ccc(S(=O)(=O)N(C)C)cc3c2=O)C1 (configuration not stated)	-7	0	nt	nt	nt
CCSc1nnc(NC(=O)c2nn(C(C)C)c(=O)c3ccccc23)s1	-2	-1	i	i	i
Clc1ccc(-c2nnc(SCc3nc(-c4ccccc4)no3)o2)cc1	3	-2	nt	nt	nt

Next section; the last 3 above are carried over.
Compound	FPRL1 binder	FPR ligand	VCAM-1 inhibition	VCAM-1 augmentation	VCAM-1 imaging
CCOC(=O)C1CCCN(C(=O)c2cn(CC)c3ccc(S(=O)(=O)N(C)C)cc3c2=O)C1 (configuration not stated)	-7	0	nt	nt	nt
CCSc1nnc(NC(=O)c2nn(C(C)C)c(=O)c3ccccc23)s1	-2	-1	i	i	i
Clc1ccc(-c2nnc(SCc3nc(-c4ccccc4)no3)o2)cc1	3	-2	nt	nt	nt
Cc1cc(C)c(NC(=O)CSc2nnc(Cc3cccn3C)n2-c2ccc(F)cc2)c(C)c1	-2	-2	nt	nt	nt
O=C(NCCC1=CCCCC1)c1cc2c(s1)CS(=O)(=O)C2	6	-1	i	i	i
CCOC(=O)c1[nH]c(C)c(C(=O)Nc2cc(Cl)ccc2C)c1C	-7	-2	nt	nt	nt
CCOC(=O)C(C)n1cnc2c(nnn2-c2ccc(C)cc2)c1=O (configuration not stated)	-4	-2	nt	nt	nt
CCOCCn1c(=O)c2c(nc3n2CCN3c2ccc(CC)cc2)n(C)c1=O	-2	0	nt	nt	nt
COc1ccc(Nc2ncccc2C(=O)Nc2ccccc2)cc1	1	-2	nt	nt	nt
Cc1noc(C)c1COC(=O)c1ccccc1Oc1ccccc1	1	-7	i	i	i
CC1CCC(NC(=O)C2(C)CCC(=O)N2Cc2cccnc2)CC1 (configuration not stated)	2	-6	i	i	i
O=C(NCCC1=CCCCC1)c1cnc2n(c1=O)CCS2	-1	-2	nt	nt	nt
Cc1cc(NS(=O)(=O)c2ccc(Nc3nc(-c4sc(N)nc4C)cs3)cc2)no1	2	-1	i	i	i
Cc1cc(C)n(CC(=O)NC2CCCCC2)n1	7	15	i	i	i
COc1ccc(CN(C2CCCC2)S(=O)(=O)c2ccc(-n3cnnn3)cc2)cc1OC	0	5	i	i	i
CC(C)c1ccc(OCc2ccc(C(=O)N3CCN(c4ccccn4)CC3)cc2)cc1	-2	0	nt	nt	nt
O=C(Nc1ccc2oc(-c3ccccc3F)nc2c1)c1ccc2c(c1)OCCO2	-9	-2	nt	nt	nt
O=C(CSc1nnc(-c2ccc(Br)cc2)n1C1CCCCC1)N1CCCC1	-1	-5	i	i	i
O=C(CN1CCOCC1)N1CCN(C(=O)CN2CCOCC2)CC1	-1	1	i	i	i
O=C(CSc1nc2c(c(=O)n1-c1ccc(Cl)cc1)SCC2)Nc1nccs1	-7	-3	nt	nt	nt
Cc1nc(CNS(=O)(=O)c2cccc(F)c2)cs1	-2	-1	i	i	i
Cc1cccc(OCc2nc(C#N)c(N3CC(C)CC(C)C3)o2)c1 (configuration not stated)	-7	-10	nt	nt	nt
Brc1ccccc1-c1nc(-c2ccccc2)no1	-6	-6	i	i	i
CCOC(=O)c1ccc(NC(=O)N2CCN(CCc3ccccc3)CC2)cc1	-4	-6	i	i	i
CCn1c(=O)cc(SCC(=O)N2CCN(C3CCCCC3)CC2)c2ccccc21	-4	-2	i	i	i
NC(=O)CSCc1ccc(Br)cc1	2	5	i	i	i
O=C(Cn1cnc2c(nnn2Cc2ccc(Cl)cc2)c1=O)NCC1CCCO1 (configuration not stated)	3	1	i	i	i
COc1ccc(-c2nnc(SCC(=O)Nc3cc(F)ccc3C)o2)cc1	1	3	nt	nt	nt
Cc1ccc(N2CC(C(=O)Nc3ccc4c(c3)OCO4)CC2=O)cc1 (configuration not stated)	-2	-2	i	i	i
CN1CCN(CC(=O)N2c3ccccc3C(C)(c3ccccc3)CC2(C)C)CC1 (configuration not stated)	9	-1	i	i	i
O=C(NC1CCCCC1)n1c(=O)oc2ccc(Cl)cc21	-6	1	i	i	i
O=C(O)CCCCCNCc1ccncc1	0	-3	nt	nt	nt
CC(=O)NC(CCS(C)(=O)=O)C(=O)Nc1ccc(F)cc1Cl (configuration not stated)	7	1	nt	nt	nt
Cc1ccc(C(C)C)c(OCc2nnc(SCC(=O)Nc3ncc(C)s3)n2C)c1	-11	-4	i	i	i
CC1=C(C(N)=O)C(c2ccccn2)n2nc(SCc3ccccc3)nc2N1 (configuration not stated)	-2	-6	i	i	i
O=C(NC1CCCCC1)N(Cc1ccc(F)cc1)Cc1nc2ccccc2c(=O)[nH]1	-7	4	i	i	i
CCCCN(C)CCNC(=O)Cn1c(=O)sc2ccccc21	-4	-3	nt	nt	nt
O=C(c1cccc(C(=O)N2CCN(c3ccc(F)cc3)CC2)c1)N1CCN(c2ccc(F)cc2)CC1	-3	-3	i	i	i
Cc1cc(NC(=O)CSc2ccc3nnc(-c4ccc(F)cc4)n3n2)no1	1	4	nt	nt	nt
CCS(=O)(=O)c1nc2ccccc2n1Cc1ccccc1Cl	3	0	i	i	i
COc1cccc(C2=NOC(C(=O)Nc3cccc(C(C)=O)c3)C2)c1 (configuration not stated)	1	8	nt	nt	nt
O=C(CSCc1ccc(F)cc1)NC1CCCC1	0	1	i	i	i
CCOC(=O)c1oc2ccccc2c1NC(=O)COc1ccc(F)cc1	-2	-4	nt	nt	nt
OCc1ccccc1N=c1ssnc1Cl	-1	-9	nt	nt	nt
O=C(Nc1ccccc1)N1CCC(c2ccccc2)C1 (configuration not stated)	1	0	i	i	i
O=C(NCCCN1CCN(c2cccc(Cl)c2)CC1)c1cccc(N2CCCC2=O)c1	3	-6	nt	nt	nt
CC1CCc2nn(CC(=O)NC3CCCC(C)C3C)cc2C1 (configuration not stated)	-1	0	nt	nt	nt
CC(C)CC(NC(=O)c1ccco1)C(=O)Nc1ccc2c(c1)OCCO2 (configuration not stated)	-6	4	nt	nt	nt
Cc1nnc(NC(=O)c2ccccc2F)s1	5	4	i	i	i
CCCS(=O)(=O)N1CCCC(C(=O)NCCCOC(C)C)C1 (configuration not stated)	0	-2	nt	nt	nt
O=C(Nc1ccc(Br)cc1)C1CCCN1S(=O)(=O)c1cccs1 (configuration not stated)	8	8	nt	nt	nt
O=C(NCc1cccnc1)c1ccc(Cl)c(Cl)c1	-2	-4	i	i	i
CCOC(=O)Cn1c(=O)oc2cc(S(=O)(=O)Nc3ccc(N(CC)CC)cc3C)ccc21	?	-48	nt	nt	nt
CCOc1ccc(C2CC(c3cccc(Cl)c3)n3nc(N)nc3N2)cc1 (configuration not stated)	-3	2	nt	nt	nt
COc1cc2c(cc1OC)C1=C(C#N)CN(CC(=O)O)CN1CC2	-6	-1	nt	nt	nt
CSc1nc2ccc(S(=O)(=O)N3CCOCC3)cc2s1	4	-1	i	i	i
COc1ccc(CCNC(=O)C2CCN(c3nn4c(=O)cc(C)nc4s3)CC2)cc1OC	0	-3	nt	nt	nt
Cc1onc(-c2ccccc2)c1C(=O)Nc1sc2c(c1C(N)=O)CCC2	-11	-2	i	i	i
O=C(CSc1nc2ccccc2c(=O)n1Cc1ccc(C(=O)NC2CC2)cc1)NCc1ccco1	0	4	nt	nt	nt
CCc1nnc(NC(=O)C(C)N2C(=O)C3C4C=CC(C4)C3C2=O)s1 (configuration not stated)	-1	1	nt	nt	nt
COC(=O)c1c(C)n(-c2ccccc2)c2ccc(O)cc12	-8	2	nt	nt	nt
COc1cc(C)c(Br)cc1S(=O)(=O)N1CCOCC1	3	11	i	i	i
COc1cc2[nH]c(=S)n(CCN3CCCCC3C)c(=O)c2cc1OC (configuration not stated)	-1	3	nt	nt	nt
O=C(COC(=O)C1CC(=O)N(C2CCCCC2)C1)c1ccc(F)cc1 (configuration not stated)	3	1	nt	nt	nt
O=C(O)c1ccc(NS(=O)(=O)c2cccc3cccnc23)cc1	-1	1	nt	nt	nt
COc1ccc(CCNC(=O)C2CCN(S(=O)(=O)N3CCCCC3)CC2)cc1OC	2	-3	nt	nt	nt
